Screening data from PubChem BioAssay.
HIV Env fusion: inhibitors of HIV-1 Env-driven cell-cell fusion, primary screen, HeLa-JRFL effector, CEM21 target cells, luciferase | 360,000 tested, 1.1% active | inhibition, % at 12.3 µM;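 active = mean replicate inhibition score of at least 50 and every replicate individually at or above 50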;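 also: 0% = plate neutral controls and 100% = maraviroc near 300 nM; one replicate is shown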
UUG fidelity: modulators of yeast start codon fidelity, primary screen, whole organism, S. cerevisiae, single point, plate reader | S. cerevisiae UUG-firefly luciferase reporter, luminescence/redox ratio | activity score, % at 18.7 µM | 350,000 tested, 0.13% active | AID 602363, 2012;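 active = replicate mean at a twofold rise or more, about +100% in these data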;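 also: firefly luciferase made from a UUG start codon reports start codon fidelity; reporter light over untreated wells divided by growth signal over untreated wells; some hits fall short of that in this replicate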
Numbers without * were called inactive; [ ] = remark or other dose.

SMILES	HIV Env fusion	UUG fidelity
C[C@@H]1CCCCO[C@@H](CN(C)C(=O)CCCN(C)C)[C@H](C)CN([C@@H](C)CO)C(=O)c2cc(NC(=O)Nc3ccc(F)cc3)ccc2O1	-9[16.7 µM]	11
C[C@@H]1CN([C@H](C)CO)C(=O)c2cc(NC(=O)NC3CCCCC3)ccc2O[C@@H]1CN(C)S(=O)(=O)c1cccs1	-58[16.7 µM]	-3
COc1ccc(S(=O)(=O)Nc2cccc3c2O[C@H](CN(C)S(=O)(=O)c2cccs2)[C@H](C)CN([C@@H](C)CO)C3=O)cc1	3[16.7 µM]	5
C[C@@H]1CN([C@@H](C)CO)C(=O)c2cc(-c3ccccc3F)cnc2O[C@H]1CN(C)C(=O)NC1CCCC1	-22[16.7 µM]	11
CCC(=O)N1C[C@H](C)[C@@H](OC)CN(C)C(=O)c2ccc(NS(C)(=O)=O)cc2OC[C@H]1C	1[16.7 µM]	-13
C[C@H](CO)N1C[C@H](C)[C@@H](CN(C)C(=O)Cc2ccccc2)Oc2ncc(C#Cc3ccccc3F)cc2C1=O	-6[16.7 µM]	-15
COCC(=O)Nc1ccc2c(c1)C(=O)N(C)[C@H]1CC[C@@H](CC(=O)OC)O[C@@H]1CO2	-31[16.7 µM]	-6
C[C@@H]1CN([C@H](C)CO)C(=O)Cc2cc(NC(=O)Cn3cnnn3)ccc2O[C@H]1CN(C)C(=O)Nc1ccccc1	-4[16.7 µM]	-2
COCC#Cc1ccc2c(c1)O[C@H](CN(C)C(=O)C1CCC1)[C@H](C)CN([C@@H](C)CO)S2(=O)=O	7[16.7 µM]	2
C[C@H]1CN([C@@H](C)CO)C(=O)c2cc(C#CC3CCCCC3)cnc2O[C@@H]1CN(C)Cc1cccnc1	-3[16.7 µM]	0
CCCN1C[C@@H](C)[C@@H](OC)CN(C)C(=O)c2cc(NC(=O)C3CCOCC3)ccc2OC[C@@H]1C	-5[16.7 µM]	10
C[C@H]1CN([C@@H](C)CO)C(=O)c2cccc(NS(=O)(=O)c3ccc(F)cc3)c2O[C@@H]1CN(C)Cc1ccc(-c2ccccc2)cc1	-28[16.7 µM]	-3
COc1cccc(C#Cc2cnc3c(c2)C(=O)N([C@@H](C)CO)C[C@H](C)[C@H](CN(C)C(=O)C2CCOCC2)O3)c1	2[16.7 µM]	17
CCC(=O)N(C)C[C@@H]1Oc2cc(-c3cccc(C#N)c3)ccc2S(=O)(=O)N([C@@H](C)CO)C[C@@H]1C	-15[16.7 µM]	7
C[C@H](CO)N1C[C@H](C)[C@@H](CN(C)Cc2ccc3c(c2)OCO3)Oc2ncc(Br)cc2C1=O	-4[16.7 µM]	8
C[C@H]1CN([C@@H](C)CO)C(=O)c2cc(-c3cccnc3)cnc2O[C@@H]1CN(C)C(=O)Nc1ccc(C(F)(F)F)cc1	-3[16.7 µM]	13
COc1cccc(S(=O)(=O)N(C)C[C@@H]2Oc3cc(C#CCC(C)C)ccc3S(=O)(=O)N([C@@H](C)CO)C[C@@H]2C)c1	85*[16.7 µM]	-10
C[C@@H]1CN([C@@H](C)CO)S(=O)(=O)c2ccc(-c3cccc(C#N)c3)cc2O[C@H]1CN(C)Cc1ccccn1	17[16.7 µM]	-14
C[C@@H]1CN([C@@H](C)CO)C(=O)c2cc(C#Cc3ccccc3F)cnc2O[C@@H]1CN(C)S(C)(=O)=O	15[16.7 µM]	-9
CCC(=O)Nc1ccc2c(c1)C(=O)N(C)C[C@@H](OC)[C@@H](C)CN(C(C)=O)[C@@H](C)CO2	15[16.7 µM]	4
C[C@@H]1CCCCO[C@@H](CN(C)S(=O)(=O)c2ccccc2)[C@@H](C)CN([C@@H](C)CO)C(=O)c2cc(NC(=O)Nc3ccc4c(c3)OCO4)ccc2O1	-2[16.7 µM]	-12
Cc1noc(C)c1S(=O)(=O)Nc1ccc2c(c1)C(=O)N([C@H](C)CO)C[C@H](C)[C@H](CN(C)CC1CC1)O2	-12[16.7 µM]	5
COc1ccc(C#Cc2cnc3c(c2)C(=O)N([C@H](C)CO)C[C@H](C)[C@H](CN(C)C(=O)Nc2cccc4ccccc24)O3)cc1OC	10[16.7 µM]	-9
Cc1ccc(S(=O)(=O)Nc2ccc3c(c2)C(=O)N([C@@H](C)CO)C[C@H](C)[C@@H](CN(C)S(=O)(=O)c2cccs2)OCCCC[C@H](C)O3)cc1	14[16.7 µM]	-15
COCC#Cc1cnc2c(c1)C(=O)N([C@H](C)CO)C[C@H](C)[C@H](CN(C)Cc1ccccc1F)O2	3[16.7 µM]	3

Later entries.
SMILES	HIV Env fusion	UUG fidelity
COc1ccc(NC(=O)Nc2ccc3c(c2)C(=O)N([C@H](C)CO)C[C@H](C)[C@@H](CN(C)C(=O)CCCN(C)C)OCCCC[C@@H](C)O3)cc1	4[16.7 µM]	1
C[C@@H]1CN([C@H](C)CO)C(=O)c2cc(C#CC3CCCC3)cnc2O[C@@H]1CN(C)C(=O)Cc1ccccn1	-2[16.7 µM]	10
C[C@@H]1CCCCO[C@H](CN(C)C(=O)CCC(F)(F)F)[C@H](C)CN([C@@H](C)CO)C(=O)c2cc(NC(=O)Cc3ccccc3)ccc2O1	-15[16.7 µM]	3
C[C@@H]1CN([C@@H](C)CO)S(=O)(=O)c2ccc(-c3ccncc3)cc2O[C@H]1CN(C)C(=O)c1cccc(F)c1	-5[16.7 µM]	6
C[C@H]1CN([C@@H](C)CO)C(=O)c2cccc(NS(=O)(=O)c3cccs3)c2O[C@@H]1CN(C)CC1CC1	-16[16.7 µM]	2
COCC(=O)N(C)C[C@@H]1Oc2cc(-c3ccc(OC)cc3)ccc2S(=O)(=O)N([C@H](C)CO)C[C@@H]1C	3[16.7 µM]	-2
COc1ccc(CN(C)C[C@@H]2OCCCC[C@H](C)Oc3ccc(NC(=O)Nc4ccc(C(F)(F)F)cc4)cc3C(=O)N([C@H](C)CO)C[C@@H]2C)cc1	22[16.7 µM]	3
C/C=C/c1ccc2c(c1)O[C@@H](CN(C)CCC)[C@@H](C)CN([C@@H](C)CO)S2(=O)=O	4[16.7 µM]	-16
Cc1noc(C)c1NC(=O)N(C)C[C@H]1Oc2ccc(NC(=O)NC(C)C)cc2CC(=O)N([C@H](C)CO)C[C@@H]1C	18[16.7 µM]	-1
C[C@@H]1CN([C@@H](C)CO)C(=O)c2cc(C#Cc3cccnc3)cnc2O[C@H]1CN(C)C(=O)CN(C)C	-10[16.7 µM]	-8
CC(=O)N[C@H]1C=C[C@H](CC(=O)NCC2CCCCC2)O[C@H]1CO	12[16.7 µM]	-18
C[C@H](CO)N1C[C@H](C)[C@H](CN(C)C(=O)Nc2ccc3c(c2)OCO3)Oc2ncc(C#CC(C)(C)O)cc2C1=O	2[16.7 µM]	25
C[C@H](CO)N1C[C@H](C)[C@H](CN(C)CC2CC2)Oc2c(NS(=O)(=O)c3cccs3)cccc2C1=O	-12[16.7 µM]	1
C[C@@H]1CN([C@@H](C)CO)C(=O)c2cc(-c3cccc(F)c3)cnc2O[C@@H]1CN(C)Cc1ccccc1	1[16.7 µM]	4
C[C@@H]1CN([C@@H](C)CO)C(=O)c2cc(C#CCN(C)C)cnc2O[C@H]1CN(C)Cc1ccc(F)cc1	-4[16.7 µM]	-1
COc1ccc(-c2cn(CC(=O)N3CCN(C)CC3)nn2)cc1OC	-4[16.7 µM]	148*
C[C@@H]1CN([C@H](C)CO)C(=O)c2cc(-c3cccnc3)cnc2O[C@@H]1CN(C)C(=O)Nc1ccc(F)cc1	-7[16.7 µM]	-9
O=C(CN1CCOCC1)NCC[C@@H]1CC[C@@H](NC(=O)Nc2ccccc2)[C@H](CO)O1	-11[16.7 µM]	-10
C[C@H](CO)N1C[C@H](C)[C@H](CN(C)Cc2ccc(C(=O)O)cc2)OCCCC[C@H](C)Oc2ccc(NC(=O)Cc3ccccc3)cc2C1=O	-12[16.7 µM]	9
C[C@@H]1CN([C@H](C)CO)C(=O)Cc2cc(NC(=O)NC3CCCCC3)ccc2O[C@H]1CN(C)Cc1ccncc1	6[16.7 µM]	2
O=C(NCC[C@H]1CC[C@H](NC(=O)C2CC2)[C@H](CO)O1)Nc1ccc(Cl)cc1	13[16.7 µM]	3
O=C(C[C@@H]1C=C[C@H](NS(=O)(=O)c2ccc(F)cc2)[C@H](CO)O1)NCc1ccc(Cl)c(Cl)c1	-8[16.7 µM]	12
O=C(N[C@H]1CC[C@@H](CCn2cc(-c3ccccc3)nn2)O[C@H]1CO)c1ccccc1F	18[16.7 µM]	10
CC(C)CC#Cc1ccc2c(c1)O[C@H](CN(C)C(=O)Cc1ccccn1)[C@H](C)CN([C@@H](C)CO)S2(=O)=O	-30[16.7 µM]	-1
O=C(C[C@H]1C[C@H]2c3cc(NC(=O)Nc4ccc(C(F)(F)F)cc4)ccc3O[C@H]2[C@H](CO)O1)NC1CCCCC1	15[16.7 µM]	-2

(more compounds)
SMILES	HIV Env fusion	UUG fidelity
O=C(C[C@@H]1CC[C@H](NC(=O)Cc2ccccn2)[C@H](CO)O1)NCCc1ccccc1	3[16.7 µM]	1
C[C@@H]1CN([C@@H](C)CO)C(=O)c2cccc(NC(=O)c3ccc(-c4nccs4)cc3)c2O[C@@H]1CN(C)Cc1ccccc1	-19[16.7 µM]	-7
COc1ccc(CN(C)C[C@H]2OCCCC[C@@H](C)Oc3ccc(NS(=O)(=O)c4ccccc4)cc3C(=O)N([C@@H](C)CO)C[C@H]2C)cc1	-14[16.7 µM]	25
Cc1noc(C)c1NC(=O)Nc1ccc2c(c1)C(=O)N([C@@H](C)CO)C[C@@H](C)[C@@H](CN(C)S(=O)(=O)c1c(C)noc1C)OCCCC[C@@H](C)O2	-66[16.7 µM]	13
CO[C@H]1CN(C)C(=O)c2ccc(NS(=O)(=O)c3cn(C)cn3)cc2OC[C@@H](C)N(C)C[C@@H]1C	7[16.7 µM]	-8
COc1cccc(S(=O)(=O)N(C)C[C@H]2Oc3ncc(-c4cccc(C(=O)N(C)C)c4)cc3C(=O)N([C@H](C)CO)C[C@@H]2C)c1	-32[16.7 µM]	8
CC(C)NC(=O)Nc1cccc2c1O[C@H](CN(C)Cc1ccccc1)[C@@H](C)CN([C@H](C)CO)C2=O	2[16.7 µM]	-26
C[C@H](CO)N1C[C@H](C)[C@H](CN(C)Cc2ccc(C(F)(F)F)cc2)Oc2ccc(NC(=O)c3ccncc3)cc2CC1=O	3[16.7 µM]	-1
CN(C)C(=O)[C@@]1(Cc2ccccc2N=[N+]=[N-])N=C(c2ccc(OCCCO)cc2)O[C@H]1c1ccccc1	18[16.7 µM]	6
CCCNC(=O)N1C[C@H](C)[C@H](OC)CN(C)C(=O)c2ccc(NC(C)=O)cc2OC[C@@H]1C	-6[16.7 µM]	1
C[C@@H]1CN([C@@H](C)CO)C(=O)c2cc(NC(=O)C3CCCCC3)ccc2O[C@H]1CN(C)Cc1ccncc1	4[16.7 µM]	-1
C[C@H](CO)N1C[C@H](C)[C@H](CN(C)C(=O)Nc2ccccc2)Oc2ncc(C#CC(C)(C)O)cc2C1=O	-15[16.7 µM]	18
COc1cccc(-c2ccc3c(c2)O[C@@H](CN(C)Cc2ccncc2)[C@H](C)CN([C@H](C)CO)S3(=O)=O)c1	15[16.7 µM]	15
CCCN(C)C[C@@H]1OCCCC[C@@H](C)Oc2ccc(NC(=O)C3CCCCC3)cc2C(=O)N([C@H](C)CO)C[C@@H]1C	-8[16.7 µM]	14
C[C@@H]1CCCCO[C@H](CN(C)C(=O)Nc2ccc(F)cc2)[C@H](C)CN([C@@H](C)CO)C(=O)c2cc(NC(=O)C3CCCCC3)ccc2O1	-3[16.7 µM]	2
CN1C(=O)c2cc(NS(=O)(=O)c3ccc(Cl)cc3)ccc2OC[C@H]2O[C@H](CC(=O)N3CCc4ccccc4C3)CC[C@H]21	1[16.7 µM]	15
C[C@H]1CN([C@@H](C)CO)C(=O)c2cc(-c3ccc(F)cc3)cnc2O[C@@H]1CN(C)CC1CCCCC1	-5[16.7 µM]	21
CCC(=O)Nc1ccc2c(c1)C(=O)N(C)C[C@H](OC)[C@@H](C)CN(C(=O)c1ccc(F)cc1)[C@@H](C)CO2	-5[16.7 µM]	-2
C[C@H]1CN([C@@H](C)CO)S(=O)(=O)c2ccc(-c3cccc(C(=O)N(C)C)c3)cc2O[C@@H]1CN(C)C(=O)Nc1ccccc1	-16[16.7 µM]	3
C[C@@H]1CCCCO[C@@H](CN(C)S(C)(=O)=O)[C@@H](C)CN([C@@H](C)CO)C(=O)c2cc(NS(=O)(=O)c3ccccc3)ccc2O1	7[16.7 µM]	5

Of the compounds above, these contain two or more sulfur atoms:
SMILES	HIV Env fusion	UUG fidelity
C[C@@H]1CN([C@H](C)CO)C(=O)c2cc(NC(=O)NC3CCCCC3)ccc2O[C@@H]1CN(C)S(=O)(=O)c1cccs1	-58[16.7 µM]	-3
COc1ccc(S(=O)(=O)Nc2cccc3c2O[C@H](CN(C)S(=O)(=O)c2cccs2)[C@H](C)CN([C@@H](C)CO)C3=O)cc1	3[16.7 µM]	5
COc1cccc(S(=O)(=O)N(C)C[C@@H]2Oc3cc(C#CCC(C)C)ccc3S(=O)(=O)N([C@@H](C)CO)C[C@@H]2C)c1	85*[16.7 µM]	-10
Cc1ccc(S(=O)(=O)Nc2ccc3c(c2)C(=O)N([C@@H](C)CO)C[C@H](C)[C@@H](CN(C)S(=O)(=O)c2cccs2)OCCCC[C@H](C)O3)cc1	14[16.7 µM]	-15
C[C@H]1CN([C@@H](C)CO)C(=O)c2cccc(NS(=O)(=O)c3cccs3)c2O[C@@H]1CN(C)CC1CC1	-16[16.7 µM]	2
C[C@H](CO)N1C[C@H](C)[C@H](CN(C)CC2CC2)Oc2c(NS(=O)(=O)c3cccs3)cccc2C1=O	-12[16.7 µM]	1
C[C@@H]1CCCCO[C@@H](CN(C)S(C)(=O)=O)[C@@H](C)CN([C@@H](C)CO)C(=O)c2cc(NS(=O)(=O)c3ccccc3)ccc2O1	7[16.7 µM]	5

The list is partial; rates above refer to the full screens.
